LASV entry inh: inhibitors of Lassa virus binding or cell entry; Lassa virus pseudotype entry inhibition, cell reporter; control for the full effect not named in the record; Potency, µM (top dose mostly 37.9 µM), for the others: top-dose activity change, negative = inhibition, most hits filed as inhibitors; 300,000 compounds, 1.2% hits; active means well fitted inhibition curve with a large enough effect; inconclusive means small, poorly fitted or top-dose-only effect, or effect the other way; inactive means flat fitted curve, though single readings scatter; tested in HEK293 cells; also: % is scaled to controls: 0 for no effect and ±100 for the full control effect; nearly all actives have a fitted effect of over 50% in size; luciferase read-out
Cruzain inh Det: inhibitors of Trypanosoma cruzi cruzain with detergent; P25779; purified cruzain, Z-FR-AMC fluorescence, 0.01% Triton; Potency, µM, inactives show max response, negative = inhibition, usual class: inhibitors; 200,000 compounds, 0.43% hits; AID 1478;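 also: plate controls were neutral wells for no effect and buffer without enzyme for full effect; nearly all actives have a fitted effect of over 40% in size; top concentration of the series not given in the record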
Target sequence (P25779 123-467 limits assumed): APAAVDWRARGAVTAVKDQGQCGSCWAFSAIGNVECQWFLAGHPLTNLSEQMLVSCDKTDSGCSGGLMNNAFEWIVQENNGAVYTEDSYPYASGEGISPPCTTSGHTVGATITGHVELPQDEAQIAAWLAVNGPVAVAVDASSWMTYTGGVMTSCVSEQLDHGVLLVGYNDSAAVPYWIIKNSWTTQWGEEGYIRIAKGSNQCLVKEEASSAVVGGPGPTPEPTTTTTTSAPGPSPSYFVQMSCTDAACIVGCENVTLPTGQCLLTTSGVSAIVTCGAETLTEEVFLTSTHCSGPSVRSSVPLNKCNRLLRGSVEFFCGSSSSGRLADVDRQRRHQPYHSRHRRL
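Purified cruzain (1.5 nM final) was preincubated with compounds for 15 min at room temperature in 100 mM sodium acetate pH 5.5, 5 mM DTT, 0.01% Triton X-100. Reaction started with 2 uM Z-FR-AMC; AMC fluorescence change over 60 s gave activity.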
SARS PLP yeast: inhibitors of SARS-CoV papain-like protease in yeast. 330,000 compounds, 0.19% hits. Potency, µM (doses to about 32.9 µM), without a hit: top-dose activity, positive = growth rescue. AID 485353. S. cerevisiae expressing SARS-CoV PLpro, growth rescue; control for the full effect not named in the record; active means well fitted rising curve with a large enough effect; inconclusive means small, poorly fitted or top-dose-only effect; inactive means no such curve, though single readings can be large or run the other way; also: 0% is about no effect; nearly all actives have a fitted effect of over 55% in size; growth read by luminescence after 48 h
StopGo reporter: FMDV 2A StopGo reporter, luciferase signal. human cells with a luciferase reporter of 2A StopGo recoding; control for the full effect not named in the record. Potency, µM (highest dose often 57.9 µM), inactives show at the highest dose signal change, negative = less light. 410,000 compounds, 1.2% hits. AID 1159524; active = well fitted falling curve with a large enough effect; inconclusive = small, poorly fitted or top-dose-only effect; inactive = no such curve, though single readings can be large or run the other way; tested in HEK293T cells; also: % is scaled to controls: 0 for no effect and ±100 for the full control effect; nearly all actives have a fitted effect of over 45% in size; luciferase light after 4 h
NS1 function inh: influenza NS1 inhibition; S. cerevisiae slowed by influenza A NS1, growth recovery by OD600; AID 2326; 270,000 compounds, 0.4% hits; Potency, µM (titrated, usually from 46.1 µM), without a hit: at the top dose activity, positive = more growth; active means well fitted rising curve with a large enough effect; inconclusive means small, poorly fitted or top-dose-only effect; inactive means no such curve, though single readings can be large or run the other way; also: nearly all actives have a fitted effect of over 50% in size
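Growth recovery, yeast-based: influenza A NS1 expressed in S. cerevisiae causes slow growth, and suppressors are detected by OD600. The parent strain without NS1 is used as positive control.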
MARV entry inh: inhibitors of Marburg virus binding or cell entry; Marburg virus pseudotyped entry inhibition, cell reporter; control for the full effect not named in the record; about a third of the inactives were read at about 46 µM; Potency, µM (top dose mostly 37.8 µM), for the others: at the highest dose activity change, negative = inhibition, actives largely listed as inhibitors; 300,000 compounds, 1.8% hits; active = well fitted inhibition curve with a large enough effect; inconclusive = small, poorly fitted or top-dose-only effect, or effect the other way; inactive = flat fitted curve, though single readings scatter; tested in HEK293 cells; about a fifth of its hits are not listed in these tables; also: % is scaled to controls: 0 for no effect and ±100 for the full control effect; luciferase read-out
Cruzain inh noDet: blocks cruzain activity in detergent-free assay; P25779; Potency, µM, without a hit: max response, negative = inhibition, most hits filed as inhibitors; purified cruzain, Z-FR-AMC fluorescence, no detergent; 200,000 compounds, 2.3% hits;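 also: plate controls were enzyme without inhibitor for no effect and buffer without enzyme for full effect; nearly all actives have a fitted effect of over 40% in size; top concentration of the series not given in the record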
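Purified cruzain at 1.5 nM, pre-incubated 15 min with compound at room temperature in 100 mM sodium acetate pH 5.5, 5 mM DTT, 0.00005% Triton X-100. Reaction started with 2 uM Z-FR-AMC; AMC fluorescence increase over 60 s gives rate.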
RE007 growth inh: less growth of the S. pombe RE007 Vpr strain; 360,000 compounds, 0.21% hits; S. pombe RE007 Vpr strain, BacTiter-Glo ATP luminescence, 24 h; control for the full effect not named in the record; Potency, µM (titrated, usually from 92.2 µM), inactives show at the top dose activity change, negative = less growth; active = well fitted falling curve with a large enough effect; inconclusive = small, poorly fitted or top-dose-only effect; inactive = no such curve, though single readings can be large or run the other way;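 also: % is scaled to controls: 0 for no effect and ±100 for the full control effect; nearly all actives have a fitted effect of over 50% in size; the assay follows cell death caused by Vpr and the record does not say whether a fall means rescue or toxicity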
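Fission yeast strain RE007, carrying one chromosomally integrated HIV-1 vpr copy, was seeded at OD 0.01 in PMG+AL medium with 23 nL pinned compound. After 24 h at 30 °C and 99% humidity, viability was read by BacTiter-Glo luminescence.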
The depositor's hits bear a star; ? = inconclusive; · = no result given; & = joins results of further samples; [ ] = another dose, or the depositor's remark. Unless noted, calls follow the shape of the dose curve; as a rule, active = well fitted curve in the direction sought with a large enough effect; inconclusive = small, poorly fitted or top-dose-only effect, or another doubt; inactive = no such curve, though single readings can be large; an effect the other way counts as inactive or inconclusive. Potency is read from the fitted curve at half-maximal effect.

SMILES	LASV entry inh	Cruzain inh Det	SARS PLP yeast	StopGo reporter	NS1 function inh	MARV entry inh	Cruzain inh noDet	RE007 growth inh
N#Cc1ccc(C23CC4(C2)[C@H](CN(CC2CCCCC2)[C@@H]4c2ccccc2)C3c2ccc(Cl)nc2)cc1 (stereo not given in full)	·	1.5%	0%	-9%	7%	·	-6%	-7%
CCCSc1nc(SCC(=O)NCc2ccccc2)c2c3c(sc2n1)COC(C)(C)C3	-9%	9.4%	4%	6%	1%	13%	-4%	-5%
O=C(NNC(=O)C1CCN(S(=O)(=O)c2ccccc2C(F)(F)F)CC1)c1ccccc1O	?	·	6%	-5%	·	0%	·	0%
Cc1c(C(=O)N(C)C)c2ccc(Cl)cc2n1O	0%	0.8%	15%	-18%	-1%	22%	22%	17%
O=C(COc1ccc(S(=O)(=O)N2CCCC2)cc1Cl)NC1CCCC1	-18%	4.3%	8%	-27%	-21%	-18%	?	-1%
Cn1c(=O)c2c(nc(NCCc3ccccc3)n2CC(=O)NCCc2ccccc2)n(C)c1=O	-9%	3.1%	-5%	-25%	?	10%&10%	16%	-6%
CC1CCCN(CCCNC(=O)c2coc3nc4ccccc4nc23)C1 (stereo not given)	7%	-23%	4%	-3%	-3%	4%&4%	-19%	-15%
O=C(N/N=C/C(Cl)=C/c1ccccc1)c1ccccn1	?	·	-4%	50%[activator]	-9%	?	·	-19%
Nc1ccc(N2CCOCC2)c(Cl)c1	-9%	6.5%	-2%	-9%	6%	8%	-4%	-23%
Cc1onc(-c2c(Cl)cccc2Cl)c1C(=O)NNc1ccccc1	-8%	·	0%	-11%	-5%	1%	·	220%
CN(Cc1ccccc1)S(=O)(=O)c1cccc2cccnc12	3%	-8.1%	-29%	0%	-54%	7%	-3%	8%
O=C(COc1ccccc1)Nc1nnc(-c2ccco2)o1	-5%	·	1%	9%	·	?	·	2%
C#CCN(CC=C)C(=O)c1ccc2nc(C3CCCCC3)oc2c1	·	·	-4%	59%[activator]	-14%	·	·	-10%
O=C(Nc1ccc(OC(F)(F)F)cc1)C1CC(=O)N(Cc2ccco2)C1 (stereo not given)	1%	·	1%	-7%	·	20%	·	10%
CC[n+]1ccc(C(=O)NCc2ccccc2)cc1	-6%[46.1 µM]	·	3%	-17%	·	?	·	6%
CCCNC(=O)C1CNc2ccccc2O1 (stereo not given)	5%	2.4%	-5%	-8%	-1%	-1%	-5%	7%
C/C=C(\C)C(=O)N[C@@H](C)CN1C2=NC[C@H](C(C)C)N2C[C@H]1Cc1ccc(OC)cc1	·	·	1%	-9%	-9%	·	·	-13%
Cc1cccc(NC(=O)c2ccc(S(=O)(=O)N(C)CC3CCCO3)cc2)c1C (stereo not given)	?	·	·	-15%	·	4%	·	24%
COc1ccc2[nH]cc(CCNS(=O)(=O)c3ccccc3)c2c1	-25%	·	-1%	4%	2%	?	·	9%
Cc1oc(-c2ccccc2)nc1CSc1nc2c(c(=O)[nH]1)CCC2	7%	-2.0%	7%	?	-9%	0%	3%	6%
CCOC(=O)c1c(C)n(Cc2ccccc2)c2ccc(OCC(O)Cn3nc(C)cc3C)cc12 (stereo not given)	-6%	-8.3%	-9%	?	15%	?	?	-15%
NC(=O)c1ccccc1NC(=S)NC(=O)CCc1ccccc1	?	-2.0%	-7%	-14%	-13%	?	-8%	12%
Cc1ccc(-c2csc3ncnc(-n4nnc5ccccc54)c23)cc1C	3%	-4.0%	20%	?	3%	?	-6%	3%
COc1ccc(N=C2SCC(=O)N2c2ccc(OC)cc2)cc1	-25%	-2.1%	10%	·	-7%	-21%	-29%	4%
FC(F)(F)c1cccc(NC(=S)N(CCCN2CCCC2)Cc2cccn2Cc2ccc(Cl)cc2)c1	?	·	-3%	28µM*	·	?	·	-5%
CCn1c(=O)cc(SCC(=O)NCc2cccnc2)c2ccccc21	-2%	3.6%	0%	8%	3%	-2%	-4%	1%
CC1(C)OC(=O)C(=NNc2ccccc2)C(=O)O1	9%	-7.6%	4%	23%	-9%	?	-8%	-6%
CCOCC(=O)Nc1cc(C(=O)OC)cc(C(=O)OC)c1	-1%	-2.9%	-11%	-9%	3%	11%	-4%	8%
CCOc1ccc(NC(=O)Nc2ccc3nccnc3c2)cc1	-23%	-3.9%	-5%	-31%	-21%	?	1%	-2%
COC(=O)c1ccc(SCC(=O)NC2CCCC2)c([N+](=O)[O-])c1	?	-0.8%	-17%	0%	-15%	-20%	14%	11%
C=CCOc1ccccc1CN1CCC(n2nccc2NC(=O)c2ccccc2)CC1	·	·	1%	-20%	-13%	·	·	5%
COc1ccc(N2CCN(C(=O)CNS(=O)(=O)c3ccc(C)cc3)CC2)cc1	?	·	-6%	-9%	·	?	·	0%
Cc1ccc(-c2nnc(SCC(=O)NCC3CCCO3)n2C)cc1 (stereo not given)	3%	2.6%	1%	0%	9%	0%	-4%	12%
Cn1c(SCC(=O)N2CCOCC2)nc(O)cc1=O	15%	2.7%	4%	·	9%	-2%	-12%	4%
COc1ccc(CC(NC(C)=O)C(=O)NC2CCN(c3c(Cc4ccccc4)c(C)nc4ncnn34)CC2)cc1OC (stereo not given)	-2%	-3.7%	?	·	-15%	-1%	?	·
CN(C)c1ccc(/C=C(\NC(=O)c2ccccc2)C(=O)NCc2cccnc2)cc1	13%[46.1 µM]	·	0%	32%[activator]	-40%	12%[46.1 µM]	·	-12%
O=C(CNC(=O)c1ccc([N+](=O)[O-])cc1)N/N=C\c1ccc(OC(=O)c2ccccc2)cc1	-1%	-9.7%	-4%	0%	2%	15%	7.9µM*	5%
CCOC(=O)c1c(C)[nH]c(C(=O)COC(=O)C2CC2)c1C	-29%	·	1%	27%	·	11%[46.1 µM]	·	-1%
Cc1ccc(Cl)cc1NC1=NC(=S)N(C(C)C)C12CCCCC2	-23%	-1.7%	6%	?	0%	-18%	3%	5%
Cc1ccc2[nH]c(=O)c(CC(=O)O)c(-c3ccccc3)c2c1	·	·	4%	8%	17%	·	·	5%

By substructure: the compounds so far containing a CF3 group.
SMILES	LASV entry inh	Cruzain inh Det	SARS PLP yeast	StopGo reporter	NS1 function inh	MARV entry inh	Cruzain inh noDet	RE007 growth inh
O=C(NNC(=O)C1CCN(S(=O)(=O)c2ccccc2C(F)(F)F)CC1)c1ccccc1O	?	·	6%	-5%	·	0%	·	0%
O=C(Nc1ccc(OC(F)(F)F)cc1)C1CC(=O)N(Cc2ccco2)C1 (stereo not given)	1%	·	1%	-7%	·	20%	·	10%
FC(F)(F)c1cccc(NC(=S)N(CCCN2CCCC2)Cc2cccn2Cc2ccc(Cl)cc2)c1	?	·	-3%	28µM*	·	?	·	-5%

Next compounds
SMILES	LASV entry inh	Cruzain inh Det	SARS PLP yeast	StopGo reporter	NS1 function inh	MARV entry inh	Cruzain inh noDet	RE007 growth inh
CCc1ccc(Oc2cc(C)nc(N)n2)cc1	-11%	-2.9%	16µM*	58%[activator]	9%	?	6%	-6%
OC12ONC(c3ccccn3)C1N1CCC2CC1 (stereo not given)	?	-0.8%	-4%	10%	-25%	22%	-1%	-10%
COC(=O)c1cc(CNC(=O)c2sccc2-c2ccccc2)ccc1OC	·	·	0%	?	-6%	·	·	1%
COc1ccc(NC(=O)Cn2nc(C(F)(F)F)c3c2CCCC3)c(OC)c1	-10%	2.0%	1%	-25%	-6%	-25%	27%	17%
COc1cccc(-n2c(Cc3cc(=O)[nH]c(=O)[nH]3)nnc2SCc2cccnc2)c1	·	4.3%	7%	-13%	1%	·	-7%	5%
COc1ccc(CC(NC(C)=O)C(=O)NC2CCN(c3c4c(nc5ncnn35)CCC4)CC2)cc1OC (stereo not given)	14%	·	1%	-9%	2%	-2%[46.1 µM]	·	3%
CCCSC1=N/C(=C\C=C\c2ccco2)C(=O)S1	-6%	?	-24%	22%	-80%	-13%	-4%	-12%
NCCCCCc1nnc(SCC(=O)Nc2cccc(Cl)c2)o1	-7%	-0.9%	0%	2%	-9%	-1%	-4%	-2%

Gathered by group: the compounds so far with an NH in an aromatic ring (5)
SMILES	LASV entry inh	Cruzain inh Det	SARS PLP yeast	StopGo reporter	NS1 function inh	MARV entry inh	Cruzain inh noDet	RE007 growth inh
COc1ccc2[nH]cc(CCNS(=O)(=O)c3ccccc3)c2c1	-25%	·	-1%	4%	2%	?	·	9%
Cc1oc(-c2ccccc2)nc1CSc1nc2c(c(=O)[nH]1)CCC2	7%	-2.0%	7%	?	-9%	0%	3%	6%
CCOC(=O)c1c(C)[nH]c(C(=O)COC(=O)C2CC2)c1C	-29%	·	1%	27%	·	11%[46.1 µM]	·	-1%
Cc1ccc2[nH]c(=O)c(CC(=O)O)c(-c3ccccc3)c2c1	·	·	4%	8%	17%	·	·	5%
COc1cccc(-n2c(Cc3cc(=O)[nH]c(=O)[nH]3)nnc2SCc2cccnc2)c1	·	4.3%	7%	-13%	1%	·	-7%	5%

Screening results as filed in PubChem BioAssay.
